MARV entry inh: blocks Marburg virus binding to or entry into cells; AID 540276; 1.8% of 300,000 active; Potency, µM (series often up to 37.8 µM), for inactives: top-dose activity change, negative = inhibition, hits mostly inhibitors; Marburg virus pseudotyped entry inhibition, cell reporter; control for the full effect not named in the record; about a third of the inactives were read at about 46 µM; active = well fitted inhibition curve with a large enough effect; inconclusive = small, poorly fitted or top-dose-only effect, or effect the other way; inactive = flat fitted curve, though single readings scatter; tested in HEK293 cells; about a fifth of its hits are not listed in these tables; note: % is set by controls: 0 for no effect and ±100 for the full control effect; luciferase read-out
RE007 growth inh: less growth of the S. pombe RE007 Vpr strain; 0.21% of 360,000 active; S. pombe RE007 Vpr strain, BacTiter-Glo ATP luminescence, 24 h; control for the full effect not named in the record; AID 651644; Potency, µM (titrated, usually from 92.2 µM), without a hit: top-dose activity change, negative = less growth; active = well fitted falling curve with a large enough effect; inconclusive = small, poorly fitted or top-dose-only effect; inactive = no such curve, though single readings can be large or run the other way;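 note: % is set by controls: 0 for no effect and ±100 for the full control effect; nearly all actives have a fitted effect of over 50% in size; the assay follows cell death caused by Vpr and the record does not say whether a fall means rescue or toxicity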
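Fission yeast strain RE007, carrying one chromosomally integrated HIV-1 vpr copy, was seeded at OD 0.01 in PMG+AL medium with 23 nL pinned compound. After 24 h at 30 °C and 99% humidity, viability was read by BacTiter-Glo luminescence.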
NS1 function inh: inhibitors of influenza NS1 protein function; Potency, µM (highest dose often 46.1 µM), for the others: at the top dose activity, positive = more growth; S. cerevisiae slowed by influenza A NS1, growth recovery by OD600; 0.4% of 270,000 active; active means well fitted rising curve with a large enough effect; inconclusive means small, poorly fitted or top-dose-only effect; inactive means no such curve, though single readings can be large or run the other way; note: nearly all actives have a fitted effect of over 50% in size
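In this qHTS, NS1 from influenza A is expressed in budding yeast, where it slows growth. Cells are switched from glucose to 2% galactose medium (pH 6.0, -URA), treated with compound, and growth recovery is read at OD600.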
Cruzain Triton: cruzain (T. cruzi) inhibition with detergent. AID 1478. 0.43% of 200,000 active. purified cruzain, Z-FR-AMC fluorescence, 0.01% Triton. Potency, µM, inactives show max response, negative = inhibition, most hits filed as inhibitors. P25779;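 note: plate controls were neutral wells for no effect and buffer without enzyme for full effect; nearly all actives have a fitted effect of over 40% in size; top concentration of the series not given in the record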
Target sequence (P25779 123-467 limits assumed): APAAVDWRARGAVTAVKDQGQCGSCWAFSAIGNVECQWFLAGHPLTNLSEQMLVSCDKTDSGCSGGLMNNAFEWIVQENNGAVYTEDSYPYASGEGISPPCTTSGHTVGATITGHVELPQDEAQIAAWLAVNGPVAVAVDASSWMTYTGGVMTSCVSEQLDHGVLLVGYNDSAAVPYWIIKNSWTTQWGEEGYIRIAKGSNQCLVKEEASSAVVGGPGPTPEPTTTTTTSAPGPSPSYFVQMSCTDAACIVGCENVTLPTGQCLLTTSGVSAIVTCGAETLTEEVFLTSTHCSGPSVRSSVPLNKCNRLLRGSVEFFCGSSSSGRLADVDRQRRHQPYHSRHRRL
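Read-out: AMC fluorescence (360 nm excitation, 450 nm emission), four reads over 2 min, first-to-third difference used. Conditions: cruzain 1.5 nM, Z-FR-AMC 2 uM, pH 5.5 acetate, 5 mM DTT, 0.01% Triton X-100.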
Cruzain inh noDet: inhibitors of Trypanosoma cruzi cruzain without detergent; P25779; purified cruzain, Z-FR-AMC fluorescence, no detergent; Potency, µM, without a hit: max response, negative = inhibition, usual class: inhibitors; 2.3% of 200,000 active; AID 1476;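 note: plate controls were enzyme without inhibitor for no effect and buffer without enzyme for full effect; nearly all actives have a fitted effect of over 40% in size; top concentration of the series not given in the record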
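Detergent-free condition (0.00005% Triton X-100) in acetate buffer pH 5.5 with DTT. 1.5 nM enzyme and compound were pre-mixed 15 min, then 2 uM Z-FR-AMC substrate added; reaction progress from fluorescence change between first and third reads (60 s).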
2A StopGo: FMDV 2A StopGo reporter, luciferase signal; human cells with a luciferase reporter of 2A StopGo recoding; control for the full effect not named in the record; Potency, µM (top dose mostly 57.9 µM), for the others: at the highest dose signal change, negative = less light; 1.2% of 410,000 active; active = well fitted falling curve with a large enough effect; inconclusive = small, poorly fitted or top-dose-only effect; inactive = no such curve, though single readings can be large or run the other way; tested in HEK293T cells; note: % is set by controls: 0 for no effect and ±100 for the full control effect; nearly all actives have a fitted effect of over 45% in size; luciferase light after 4 h
LASV entry inh: Lassa virus entry inhibition | Lassa virus pseudotype entry inhibition, cell reporter; control for the full effect not named in the record | Potency, µM (doses to about 37.9 µM), for inactives: top-dose activity change, negative = inhibition, hits mostly inhibitors | 1.2% of 300,000 active; active means well fitted inhibition curve with a large enough effect; inconclusive means small, poorly fitted or top-dose-only effect, or effect the other way; inactive means flat fitted curve, though single readings scatter; tested in HEK293 cells; note: % is set by controls: 0 for no effect and ±100 for the full control effect; nearly all actives have a fitted effect of over 50% in size; luciferase read-out
SARS PLP yeast: SARS-CoV PLP inhibition in yeast | Potency, µM (series often up to 32.9 µM), for inactives: top-dose activity, positive = growth rescue | 0.19% of 330,000 active | AID 485353 | S. cerevisiae expressing SARS-CoV PLpro, growth rescue; control for the full effect not named in the record; active means well fitted rising curve with a large enough effect; inconclusive means small, poorly fitted or top-dose-only effect; inactive means no such curve, though single readings can be large or run the other way; note: 0% is about no effect; nearly all actives have a fitted effect of over 55% in size; growth read by luminescence after 48 h
* = called active by the depositor; ? = inconclusive; / = no result given; [ ] = another dose, or the depositor's remark. Unless noted, calls come from the whole dose curve; as a rule, active = well fitted curve in the direction sought with a large enough effect; inconclusive = small, poorly fitted or top-dose-only effect, or another doubt; inactive = no such curve, though single readings can be large; an effect the other way counts as inactive or inconclusive. Potency is the fitted concentration of half-maximal effect.

nr	mol	MARV entry inh	RE007 growth inh	NS1 function inh	Cruzain Triton	Cruzain inh noDet	2A StopGo	LASV entry inh	SARS PLP yeast
1	CC(=O)Nc1ccccc1OCC(=O)NCCc1ccc(Cl)cc1Cl	-12%	5%	0%	-0.7%	1%	0%	-6%	17%
2	O=S(=O)(NCC(c1cccnc1)N1CCN(c2ccc(F)cc2)CC1)c1ccc(F)cc1 (stereo unspecified)	2%	-9%	-74%	-4.7%	9%	-18%	/	-4%
3	CN1C(=O)/C(=C\c2cccc(OCc3ccccc3)c2)SC1=S	/	9%	2%	/	/	6%	/	1%
4	O=C(Cn1nc(Cl)nc1Cl)Nc1ccccc1	11%	3%	-3%	1.7%	-2%	51%[activator]	6%	-1%
5	Cc1cc(C)cc(C(=O)NC(CC(N)=O)c2ccc(NCCN3CCCC3)c([N+](=O)[O-])c2)c1 (stereo unspecified)	/	3%	2%	/	/	-20%	/	-4%
6	O=C(CCS(=O)(=O)c1ccc(Cl)cc1)NCCC1=CCCCC1	-11%	4%	5%	/	/	-24%	14%	0%
7	COc1ccc(CNC(=S)Nc2ccc3nc(N4CCN(C)CC4)cc(C)c3c2)cc1	?	-7%	-3%	/	/	28%	?	1%
8	O=C(NNC(=O)c1ccc[nH]1)Nc1cccc(C(F)(F)F)c1	15%[46.1 µM]	-3%	1%	/	/	16%	0%[46.1 µM]	?
9	O=C(NCc1nc2ccccc2[nH]1)C1=C[C@@H](c2ccccc2)C[C@@H](OCCCCO)O1	/	-29%	1%	/	/	-14%	/	-2%
10	Cc1ccccc1NC(=O)c1ccc(-n2cncn2)nc1	9%	0%	1%	4.9%	5%	8%	8%	5%
11	O=C1/C(=C\c2ccsc2)N2CCC1CC2	0%[46.1 µM]	17%	1%	/	/	5%	1%	-3%
12	c1ccc(Cn2c(Sc3nnnn3-c3ccccc3)nnc2-c2ccccc2)cc1	?	2%	0%	6.4%	3%	-25%	-16%	0%
13	COc1ccc(NC(=O)c2cc3nc(-c4ccc(Cl)c(Cl)c4)cc(C(F)(F)F)n3n2)c(OC)c1	/	/	/	0.0%	1%	-6%	-6%[46.1 µM]	/
14	O=C(CCc1nnc(-c2ccccc2)o1)c1ccc(Cl)cc1	-1%[46.1 µM]	17%	-7%	/	/	25%	4%[46.1 µM]	0%
15	Cc1cc(Cl)ccc1OCCCC(=O)N1CCN(C)CC1	-19%	-6%	-10%	1.6%	-5%	-5%	3%	-5%
16	Fc1ccc(C2N3CCCN23)cc1 (stereo unspecified)	?	21%	-4%	/	/	-3%	25%	3%
17	COC(=O)CCSCC(=O)Nc1ccc(S(=O)(=O)N2CCOCC2)cc1OC	/	4%	0%	/	/	2%	/	0%
18	Cc1nc(S/C(=C/c2ccc(-c3ccc(C(=O)O)cc3)o2)C(=O)O)n[nH]1	/	-10%	5%	/	/	-14%	/	1%
19	COc1ccc(C)cc1S(=O)(=O)N1CCCC(C(=O)NCC2CCCO2)C1 (stereo unspecified)	10%	0%	7%	2.6%	11%	/	15%	7%
20	CC(C)OC(=O)C1CC(C)(O)C(=O)C(C(=O)OC(C)C)C1c1ccc([N+](=O)[O-])cc1 (stereo unspecified)	?	-7%	/	/	/	?	-17%[46.1 µM]	-3%
21	Cc1ccc(NC(=O)CSc2n[nH]c(-c3ccc(F)cc3)n2)cc1F	/	/	/	-11%	-9%	-28%	-20%[46.1 µM]	/
22	O=C(NCCCN1CCOCC1)C(=O)NCC1OCCN1S(=O)(=O)c1ccc(F)cc1 (stereo unspecified)	-6%	-24%	11%	/	/	-8%	-2%	1%
23	CC(C)N1CCN(c2ccncc2S(=O)(=O)N2CCOCC2)CC1	24%	-9%	4%	8.1%	-8%	-16%	9%	0%
24	Cc1c(C(=O)N2CCN(c3ncccn3)CC2)sc2nc3n(c(=O)c12)CCCC3	?	5%	1%	4.3%	-3%	-8%	1%	/
25	COCCn1c(C)cc(C(=O)CSc2nc(C)nc3sc4c(c23)CCC4)c1C	3.7µM*	-2%	-10%	/	/	7%	10µM*	/
26	COc1ccc(NC(=O)CCSc2cc(C)c3ccccc3n2)cc1	?	-2%	-26%	3.5%	2%	0%	8%	0%
27	Cc1c(C)n(C)c2ccc(C(=O)NCCCN3CCN(c4ccccc4F)CC3)cc12	?	2%	15%	/	/	9%	?	-3%
28	N#Cc1c(-c2ccccc2)cc(-c2ccccc2)[nH]c1=O	/	2%	0%	/	/	-4%	/	3%
29	O=C(NCc1ccco1)/C(=C\c1cccs1)NC(=O)c1ccsc1	?	0%	9%	-3.2%	1%	7%	1%	4%
30	Cc1cccc(C(=O)O/N=C2\CCCc3ccccc32)c1	3%	-10%	-26%	-12%	3%	51%[activator]	?	-9%
31	Cc1cc(C)cc(Nc2nnc(-n3nc(C)cc3C)c3ccccc23)c1	-22%[46.1 µM]	/	/	-3.8%	-1%	-12%	-7%[46.1 µM]	/
32	COc1cc2nc(C3CCC3)n(NC(=O)C3CCCC(OC)C3)c(=O)c2cc1OC (stereo unspecified)	12%	9%	-5%	-1.3%	?	-13%	-4%	2%
33	Cc1csc(NC(=O)C(NS(=O)(=O)c2ccc(Br)s2)c2ccccc2)n1 (stereo unspecified)	?	32%	-5%	-5.4%	-5%	0%	-22%	3%
34	COc1ccc(NC(=O)Cn2ncc3c(C)n(Cc4cccc(Cl)c4)c(C)c3c2=O)cc1	?	/	/	-1.1%	22%	-20%	13%[46.1 µM]	/
35	CCC(C)c1ccccc1NS(=O)(=O)c1cnn(CC)c1 (stereo unspecified)	/	10%	10%	/	/	-3%	/	-1%
36	Cc1cccc(NC(=O)Nc2ccc(Oc3c(F)c(F)c(F)c(F)c3F)cc2)c1	18%	22%	6%	1.8%	?	/	12%	7%
37	CC1=C(C)CC(C(=O)NCc2c(F)cccc2Cl)C(C(=O)O)C1 (stereo unspecified)	12%	4%	1%	/	/	-3%	21%	-1%
38	CCOC(=O)CNC1CC(=O)N(c2cccc(Cl)c2)C1=O (stereo unspecified)	-9%	?	3%	4.5%	1%	/	16%	-25%
39	CSc1cccc(NC(=O)COc2ccccc2C)c1	-22%[46.1 µM]	-23%	/	/	/	51%[activator]	0%	-1%
40	CCc1ccc(S(=O)(=O)Nc2nccs2)cc1	28%	18%	7%	/	/	63%[activator]	-20%	3%
41	Cc1ccc(S(=O)(=O)NCC(=O)N2CCN(c3ccccn3)CC2)cc1	11%	-11%	-5%	6.2%	0%	-9%	20%	4%
42	COc1ccc(/C=C/C(=O)N2CCC(c3ccccc3)C2)cc1 (stereo unspecified)	?	-12%	-7%	-4.9%	-11%	14%	?	-3%
43	COc1cc(C2NC(=S)NC(c3ccccc3)=C2C(C)=O)cc(Br)c1OCC(N)=O (stereo unspecified)	/	-7%	-13%	/	/	2%	/	1%
44	COc1ccc(-n2c(=O)c3ccccc3n(Cc3cccc(C)c3)c2=O)cc1	9%[46.1 µM]	/	/	-0.5%	5%	-29%	24%[46.1 µM]	/
45	COc1ccc(OC)c(CCNC(=O)c2ccccc2NC(=O)C2=C(C)OCCS2)c1	/	3%	-25%	/	/	-4%	/	-9%
46	CCOC(=O)c1[nH]c2c(c1Cc1ccccc1C)C(=O)CC(c1ccccc1)C2 (stereo unspecified)	-26%[46.1 µM]	/	/	-3.7%	-4%	-28%	9%[46.1 µM]	/
47	CN1CCc2c(sc3c2C(=O)NC(c2cn(Cc4ccccc4)c4ccccc24)N3)C1 (stereo unspecified)	?	6%	-13%	?	?	?	?	-12%
48	CCn1c(CN2C(=O)CSc3ccccc32)n[nH]c1=S	-6%[46.1 µM]	-1%	5%	/	/	-21%	15%[46.1 µM]	3%
49	COc1ccc(N2CCN(c3ccc(NC(=O)c4ccc5c(c4)OCO5)cc3C#N)CC2)cc1	-18%	-3%	0%	3.9%	-28%	-9%	?	-11%
50	O=C(Cc1ccccc1)NNS(=O)(=O)c1ccc(F)cc1	/	14%	-1%	/	/	-8%	/	0%
51	CCSc1nnc(NC(=O)Cc2ccccc2OC)s1	-1%	9%	0%	2.9%	1%	4%	-12%	4%
52	CC(NC(=O)COc1ccccc1)C(=O)N1CCN(c2ccc(F)cc2)CC1 (stereo unspecified)	26%	7%	/	/	/	11%	-1%	-3%
53	Cc1cc(C(=O)N2CCCC(Nc3ccccc3)C2)c2ccc(F)cc2n1 (stereo unspecified)	/	19%	1%	/	/	-12%	/	2%
54	CCN1CCN(CCCNC(=O)c2ccc(/C=C3/Oc4ccccc4N(Cc4cccc(C)c4)C3=O)cc2)CC1	/	-10%	5%	/	/	0%	/	19%
55	Cc1c(NC(=S)NC(=O)c2ccccc2)c(=O)n(-c2ccccc2)n1C	14%	-3%	/	/	/	7%	14%	/
56	CCC(C)NC(=O)CN1C(=O)c2cccnc2Oc2ccc(C)cc21 (stereo unspecified)	/	/	/	-0.7%	-2%	-12%	8%[46.1 µM]	/
57	CCc1cccc(NS(=O)(=O)c2ccc3c(c2)CCC(=O)N3)c1	?	7%	/	/	/	18%	?	2%
58	COc1ccc(C)cc1N(C)C(=O)c1c(C)oc2ncnc(N3CCOCC3)c12	/	/	/	0.1%	-12%	-11%	5%[46.1 µM]	/
59	O=C(NC1CCCCC1)C(c1ccc(F)cc1)N(Cc1ccccc1)C(=O)CN1C(=O)c2ccccc2S1(=O)=O (stereo unspecified)	-12%	/	11%	-1.8%	-12%	-2%	-21%	-4%
60	CCOc1ccc(NC(=O)CSc2nc(N)c(-c3ccccc3)c(=O)[nH]2)cc1	3%[46.1 µM]	10%	/	/	/	-11%	2%	0%

Next part:
nr	mol	MARV entry inh	RE007 growth inh	NS1 function inh	Cruzain Triton	Cruzain inh noDet	2A StopGo	LASV entry inh	SARS PLP yeast
61	COc1ccc(/C=C/c2c([N+](=O)[O-])c(=O)n(C)c(=O)n2C)cc1	-7%[46.1 µM]	-38%	/	/	/	-1%	/	0%
62	Cc1cc[n+](C(C)C(=O)c2ccc(-c3ccccc3)cc2)cc1 (stereo unspecified)	?	-26%	/	/	/	?	10µM*	-9%
63	COc1ccc(N(CC(=O)NCc2ccc3c(c2)OCO3)S(=O)(=O)c2ccc(O)c(C(=O)O)c2)cc1	21%	-9%	/	/	/	1%	-8%	/
64	O=C(NCc1ccc(F)cc1Cl)C1CCN(S(=O)(=O)N2CCCCC2)CC1	/	5%	6%	/	/	0%	/	-3%
